Screening results from PubChem.
MLL AF4-AF9 inh = MLL-AF4/AF9 protein interaction inhibition; inhibition, % at 10 µM; AlphaScreen, biotin-AF4 peptide binding to FLAG-AF9; actives 0.47% (n = 350,000);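 active = every replicate reaching a set inhibition limit, whatever the replicate mean, cut at about 25% in these data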;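 also: 0% = plate neutral control median and 100% = total signal loss; the record names both 10 and 1 µM as test concentration; the first replicate is given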
Target sequence (P42568 whole entry, looked up): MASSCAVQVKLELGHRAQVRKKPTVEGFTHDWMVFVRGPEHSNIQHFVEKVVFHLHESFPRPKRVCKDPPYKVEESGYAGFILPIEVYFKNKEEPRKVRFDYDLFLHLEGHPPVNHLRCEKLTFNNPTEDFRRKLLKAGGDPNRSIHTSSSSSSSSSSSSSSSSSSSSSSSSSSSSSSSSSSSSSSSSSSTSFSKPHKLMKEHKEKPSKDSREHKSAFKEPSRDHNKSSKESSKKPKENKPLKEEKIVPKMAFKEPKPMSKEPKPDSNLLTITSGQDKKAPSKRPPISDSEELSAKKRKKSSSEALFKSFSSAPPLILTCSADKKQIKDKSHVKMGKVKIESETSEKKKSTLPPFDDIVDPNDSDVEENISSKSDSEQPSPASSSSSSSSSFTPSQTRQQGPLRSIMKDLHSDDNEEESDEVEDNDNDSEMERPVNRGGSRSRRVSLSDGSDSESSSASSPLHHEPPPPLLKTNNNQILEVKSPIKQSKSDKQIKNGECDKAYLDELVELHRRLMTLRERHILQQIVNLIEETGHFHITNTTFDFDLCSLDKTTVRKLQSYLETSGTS
* marks the source's active call; other numbers are inactive results. Not all compounds are listed. The share of hits here may be higher or lower than overall.

SMILES	MLL AF4-AF9 inh
C[C@@H]1CN([C@H](C)CO)C(=O)c2cc(NS(=O)(=O)c3cn(C)cn3)ccc2O[C@@H]1CN(C)Cc1ccc(Cl)c(Cl)c1	-0.1
N#C[C@@H]1[C@@H](c2ccc(C3=CCCC3)cc2)[C@H](CO)N1C(=O)C1CCC1	-2.5
CO[C@H]1CN(C)C(=O)c2ccc(NS(=O)(=O)CC(F)(F)F)cc2OC[C@H](C)NC[C@H]1C	-3.1
Cn1cnnc1SCC(=O)NC(=O)NCc1ccccc1	-1.0
C[C@H]1CN([C@@H](C)CO)C(=O)c2cc(C#CC(C)(C)O)cnc2O[C@H]1CN(C)Cc1ccccn1	-4.2
COc1ccc(NC(=O)Nc2ccc3c(c2)CC(=O)N([C@H](C)CO)C[C@H](C)[C@@H](CN(C)S(=O)(=O)c2c(C)noc2C)O3)cc1	8.1
O=C(C1CCCO1)N1CCN(C(=O)C23CC4CC(CC(C4)C2)C3)CC1 (centres undefined)	2.0
C[C@H](CO)N1C[C@H](C)[C@@H](CN(C)Cc2ccc(Cl)c(Cl)c2)Oc2c(NC(=O)c3nc4ccccc4s3)cccc2C1=O	3.0
C[C@@H]1CN([C@H](C)CO)C(=O)c2cccc(NS(C)(=O)=O)c2O[C@@H]1CN(C)S(=O)(=O)c1ccccc1	-5.2
C[C@H](CO)N1C[C@H](C)[C@@H](CN(C)CC2CCCCC2)Oc2ccc(NC(=O)C3CCCCC3)cc2CC1=O	6.8
C[C@@H]1CN([C@@H](C)CO)S(=O)(=O)c2ccc(C#CC3CC3)cc2O[C@@H]1CN(C)CC1CCOCC1	1.5
C[C@@H]1CCCCO[C@@H](CN(C)C(=O)c2ccccc2)[C@H](C)CN([C@@H](C)CO)C(=O)c2cc(NC(=O)C3CCCCC3)ccc2O1	-0.8
CC(C)OC(=O)N(C)C[C@@H]1OCc2ccccc2-c2ccccc2C(=O)N([C@@H](C)CO)C[C@H]1C	1.0
Cc1cccc(-c2ccc(C3[C@@H]4CN(C(=O)C5CCC5)C[C@H]3N4)cc2)c1 (some centres undefined)	5.5
C[C@@H]1CCCCO[C@@H](CN(C)Cc2ccc(C(=O)O)cc2)[C@@H](C)CN([C@H](C)CO)C(=O)c2cc(NC(=O)Nc3ccccc3)ccc2O1	-11
Cc1noc(C)c1S(=O)(=O)Nc1ccc2c(c1)C(=O)N([C@H](C)CO)C[C@@H](C)[C@@H](CN(C)C(=O)C1CCCCC1)OCCCC[C@H](C)O2	0.1
C[C@@H]1CN([C@H](C)CO)C(=O)c2cc(-c3ccncc3)cnc2O[C@H]1CN(C)C(=O)CN1CCOCC1	-2.2
CO[C@@H]1CN(C)C(=O)c2ccc(NC(=O)c3cc(C)on3)cc2OC[C@@H](C)N(CC2CC2)C[C@H]1C	1.0
CCC(=O)N1[C@H](CO)[C@H](c2ccccc2)[C@H]1CN(C)C(=O)c1ccccc1F	0.7
CCOC(=O)N1CCN(C(=O)C2CCN(C(=O)c3ccccc3C)CC2)CC1	-0.9
Cc1ccc(S(=O)(=O)Nc2ccc3c(c2)CC(=O)N([C@H](C)CO)C[C@H](C)[C@@H](CN(C)Cc2ccc(C(=O)Nc4ccccc4N)cc2)O3)cc1	0.2
C[C@@H]1CN([C@@H](C)CO)C(=O)c2cc(NS(C)(=O)=O)ccc2O[C@@H]1CN(C)Cc1ccc(C(=O)Nc2ccccc2N)cc1	1.8
COc1ccc(NC(=O)N(C)C[C@@H]2Oc3ccc(NC(=O)Cn4cnnn4)cc3C(=O)N([C@H](C)CO)C[C@@H]2C)cc1	0.3
CCCNC(=O)N(C)C[C@H]1Oc2cc(-c3ccncc3)ccc2S(=O)(=O)N([C@H](C)CO)C[C@H]1C	-3.8

By substructure: those above with a Cl atom.
SMILES	MLL AF4-AF9 inh
C[C@@H]1CN([C@H](C)CO)C(=O)c2cc(NS(=O)(=O)c3cn(C)cn3)ccc2O[C@@H]1CN(C)Cc1ccc(Cl)c(Cl)c1	-0.1
C[C@H](CO)N1C[C@H](C)[C@@H](CN(C)Cc2ccc(Cl)c(Cl)c2)Oc2c(NC(=O)c3nc4ccccc4s3)cccc2C1=O	3.0

The main list resumes, repeating the 6 entries before the break.
SMILES	MLL AF4-AF9 inh
CCC(=O)N1[C@H](CO)[C@H](c2ccccc2)[C@H]1CN(C)C(=O)c1ccccc1F	0.7
CCOC(=O)N1CCN(C(=O)C2CCN(C(=O)c3ccccc3C)CC2)CC1	-0.9
Cc1ccc(S(=O)(=O)Nc2ccc3c(c2)CC(=O)N([C@H](C)CO)C[C@H](C)[C@@H](CN(C)Cc2ccc(C(=O)Nc4ccccc4N)cc2)O3)cc1	0.2
C[C@@H]1CN([C@@H](C)CO)C(=O)c2cc(NS(C)(=O)=O)ccc2O[C@@H]1CN(C)Cc1ccc(C(=O)Nc2ccccc2N)cc1	1.8
COc1ccc(NC(=O)N(C)C[C@@H]2Oc3ccc(NC(=O)Cn4cnnn4)cc3C(=O)N([C@H](C)CO)C[C@@H]2C)cc1	0.3
CCCNC(=O)N(C)C[C@H]1Oc2cc(-c3ccncc3)ccc2S(=O)(=O)N([C@H](C)CO)C[C@H]1C	-3.8
CC(C)OC(=O)c1ccc2ccc(-c3ccccc3)nc2c1	-4.9
C[C@@H]1CN([C@@H](C)CO)C(=O)c2cc(NC(=O)Nc3cccc4ccccc34)ccc2O[C@H]1CN(C)C(=O)Nc1ccc2c(c1)OCO2	1.6
COC(=O)C[C@@H]1C[C@@H]2c3cc(NC(=O)NC4CCCCC4)ccc3O[C@@H]2[C@@H](CO)O1	-2.0
C[C@@H]1CCCCO[C@@H](CN(C)CC2CCCCC2)[C@H](C)CN([C@H](C)CO)C(=O)c2cc(NC(=O)C3CCCCC3)ccc2O1	-3.0
C[C@@H]1CCCCO[C@H](CN(C)S(=O)(=O)c2cn(C)cn2)[C@H](C)CN([C@@H](C)CO)C(=O)c2cc(N(C)C)ccc2O1	3.1
C[C@H](CO)N1C[C@H](C)[C@@H](CN(C)Cc2ccncc2)Oc2ccc(NC(=O)Nc3ccccc3)cc2CC1=O	4.9
N#Cc1cccc(-c2ccc3c(c2)[C@@H]2[C@@H](CCN2S(=O)(=O)c2ccc(F)cc2)[C@H](CO)N3)c1	2.0
C[C@@H](NC(=O)C[C@@H]1CC[C@@H](NC(=O)c2cccnc2)[C@H](CO)O1)c1ccccc1	-1.2
O=C(NC1CCC1)[C@@H]1[C@@H](CO)[C@@H]2Cn3c(cccc3=O)[C@@H]2N1CCc1ccccc1	-0.7
O=C(C[C@@H]1C[C@@H]2c3cc(NC(=O)C4CCOCC4)ccc3O[C@@H]2[C@@H](CO)O1)NCc1ccc(Oc2ccccc2)cc1	3.7
CCCNC(=O)C1(C)CCN(Cc2cccc(OC(=O)c3ccccc3)c2)C1 (centres undefined)	-1.4
COc1ccc(C(=O)Nc2ccc3c(c2)OC[C@H](C)NC[C@@H](C)[C@@H](OC)CN(C)C3=O)cc1	-2.1
CN1[C@@H]2c3ccc(-c4ccccc4)c(=O)n3C[C@@H]2[C@@H](CO)[C@@H]1C(=O)N1CCc2ccccc2C1	-12
O=C(c1ccccc1F)N1CC(=O)N2[C@H](CO)[C@H](c3ccc(C#Cc4ccccc4)cc3)[C@@H]2C1	-0.3
CC1(c2ccc3c(c2)OCO3)NC(=O)N(CC(=O)Nc2ccccc2[N+](=O)[O-])C1=O (centres undefined)	0.4
Cc1noc(C)c1NC(=O)N(C)C[C@H]1Oc2c(NC(=O)CCCCCC(=O)Nc3ccccc3N)cccc2C(=O)N([C@H](C)CO)C[C@@H]1C	-0.1
CCCN1[C@@H]2c3ccc(C4=CCCC4)c(=O)n3C[C@@H]2[C@@H](CO)[C@@H]1C(=O)NCCCN(C)C	12
CCS(=O)(=O)N(C)C[C@H]1[C@@H](c2ccccc2)[C@@H](CO)N1C(=O)CN(C)C	-5.0
C[C@@H]1CN([C@@H](C)CO)C(=O)c2cc(NS(C)(=O)=O)ccc2O[C@@H](C)CCCCO[C@@H]1CN(C)C(=O)Nc1ccc2c(c1)OCO2	-4.1
O=C(CN1CCOCC1)NN=Cc1ccc([N+](=O)[O-])o1	-2.3
C[C@@H]1CN([C@@H](C)CO)S(=O)(=O)c2ccc(C#Cc3cccc(F)c3)cc2O[C@H]1CN(C)C(=O)CN1CCOCC1	5.0
COc1ccc(CN(C)C[C@@H]2OCCCC[C@H](C)Oc3ccc(NC(=O)c4ccncc4)cc3C(=O)N([C@@H](C)CO)C[C@H]2C)cc1	-2.0
C[C@@H]1CN([C@H](C)CO)S(=O)(=O)c2ccc(C3=CCCC3)cc2O[C@H]1CN(C)S(=O)(=O)c1cn(C)cn1	-0.8
CO[C@@H]1CN(C)C(=O)c2cc(NC(=O)C3CCCCC3)ccc2OC[C@H](C)N(C)C[C@H]1C	-1.8
CN1c2ccc(-c3ccccc3F)cc2[C@@H]2[C@@H](CCN2S(=O)(=O)c2ccccc2)[C@@H]1CO	-6.1
CO[C@@H](CN(C)Cc1cc(F)ccc1F)[C@H](C)CN([C@H](C)CO)S(=O)(=O)c1ccc(C)cc1	-1.8
Cc1ccc(NC(=O)Nc2nnc([C@@H]3C[C@H](O)[C@@H](CO)O3)s2)cc1	-7.0
Cc1noc(C)c1S(=O)(=O)Nc1ccc2c(c1)C(=O)N([C@@H](C)CO)C[C@H](C)[C@@H](CN(C)C(=O)Nc1ccc(C(F)(F)F)cc1)OCCCC[C@H](C)O2	-2.0
COc1ccc2c3c([nH]c2c1)[C@H](CO)NCC31CCN(C(=O)c2ccccc2)CC1	-7.9
COc1ccc(C#Cc2ccc([C@H]3[C@@H](CO)N4C(=O)CN(C(=O)NC(C)C)C[C@@H]34)cc2)cc1	-3.1
Cc1noc(C)c1NC(=O)N(C)C[C@@H]1Oc2ccc(NC(=O)C3CCCCC3)cc2CC(=O)N([C@H](C)CO)C[C@@H]1C	-0.3
CCCC#Cc1cnc2c(c1)C(=O)N([C@@H](C)CO)C[C@@H](C)[C@H](CN(C)C(=O)Cc1cccnc1)O2	-3.2
COc1ccc(NC(=O)Nc2ccc3c(c2)CC(=O)N([C@H](C)CO)C[C@@H](C)[C@H](CN(C)CC2CC2)O3)cc1	4.5
CN(C)CC(=O)N[C@H]1C[C@@H]2O[C@H](CO)CC[C@@H]2O[C@@H]1CCc1ccc(C2=CCCCC2)cc1	12
CCN1C(=O)[C@@H]2[C@@H]3CN(S(=O)(=O)c4ccccc4C)[C@@H](c4ccc(Cl)cc4)[C@@H]3C(=O)C[C@@H]2C1=O	0.8
COCC(=O)N1C[C@H]2[C@@H](c3ccccc31)[C@@H](CO)N2Cc1ccccc1Cl	-2.1
O=C(CCN1CCCCC1)NCC[C@@H]1CC[C@@H](NC(=O)c2ccc(F)cc2)[C@H](CO)O1	2.4
COc1cccc(S(=O)(=O)N2CCCCN3[C@H](C2)[C@@H](c2ccc(C#CC(C)C)cc2)[C@@H]3CO)c1	-6.6
CSC1=Nc2sc3c(c2C2=NCCN12)CC(C)(C)OC3	-1.1
CC[C@@H]1CC2=C(C(=O)OC(C)(C)O2)[C@@H](CC)O1	-3.1
COCC(=O)N(C)C[C@@H]1Oc2cc(-c3ccc(C)cc3)ccc2S(=O)(=O)N([C@@H](C)CO)C[C@@H]1C	-1.5
COC(=O)c1cn(C[C@H](Cc2ccccc2)NC(=O)c2ccccc2)nn1	-0.1
C[C@@H]1CCCCO[C@H](CN(C)Cc2ccc(C(F)(F)F)cc2)[C@@H](C)CN([C@H](C)CO)C(=O)c2cc(NC(=O)CCCCCC(=O)Nc3ccccc3N)ccc2O1	0.0
CN1CCN(c2cc(CNC[C@H]3O[C@@H](n4cnc5c(=O)[nH]c(N)nc54)[C@H](O)[C@@H]3O)ccc2F)CC1	-3.8
COc1ccc(S(=O)(=O)Nc2ccc3c(c2)C(=O)N([C@H](C)CO)C[C@H](C)[C@H](CN(C)Cc2ccc(C(=O)Nc4ccccc4N)cc2)O3)cc1	-1.0
CCCCNC(=O)C[C@@H]1C[C@@]2(C(=O)OCC)CCCC=C2N(CCc2ccc(OC)c(OC)c2)C1=O	-0.9
O=C(C[C@@H]1CC[C@H](NS(=O)(=O)c2ccc(F)cc2)[C@@H](CO)O1)N1CCN(c2ccccc2)CC1	1.2
CNC[C@@H]1Oc2ccc(NC(=O)NC3CCCCC3)cc2CC(=O)N([C@H](C)CO)C[C@H]1C	-1.7
CN(C)c1ccc2c(c1)[C@@H]1C[C@H](CC(=O)NCCN3CCCCC3)O[C@@H](CO)[C@@H]1O2	15
C[C@H](CO)N1C[C@H](C)[C@H](CN(C)C(=O)Nc2ccc3c(c2)OCO3)Oc2ccc(NC(=O)C3CCCCC3)cc2C1=O	4.5
C[C@@H]1CN([C@H](C)CO)C(=O)Cc2cc(NS(=O)(=O)c3cccs3)ccc2O[C@H]1CN(C)C(=O)NC1CCCCC1	-12
C[C@@H]1CN([C@@H](C)CO)C(=O)c2cc(C#C[C@@H](C)O)cnc2O[C@@H]1CN(C)Cc1cccc(C(=O)O)c1	-3.6
C/C=C/c1ccc([C@@H]2[C@@H](CO)N(C(C)=O)[C@H]2CN(C)C(=O)NC2CCCC2)cc1	0.7
Cc1cc(C)n2c(Nc3ccc4c(c3)OCCO4)c(CCc3ccccc3)nc2n1	3.3
COc1cccc(S(=O)(=O)Nc2ccc3c(c2)OC[C@@H](C)N(Cc2ccccc2F)C[C@H](C)[C@H](OC)CN(C)C3=O)c1	2.0
C[C@@H]1CN([C@H](C)CO)C(=O)c2cc(NC(=O)CCC(F)(F)F)ccc2O[C@@H](C)CCCCO[C@H]1CN(C)C(=O)NC1CCCCC1	-0.6
CO[C@@H]1CN(C)C(=O)c2ccc(NC(=O)C3CC3)cc2OC[C@@H](C)N(Cc2ccncc2)C[C@H]1C	-14
C[C@@H]1CCCCO[C@H](CN(C)C(=O)C2CCCCC2)[C@H](C)CN([C@@H](C)CO)C(=O)c2cc(NS(=O)(=O)c3ccc(F)cc3)ccc2O1	-0.9
CO[C@H]1CN(C)C(=O)c2ccc(NC(=O)c3nc4ccccc4s3)cc2OC[C@@H](C)N(Cc2cncnc2)C[C@H]1C	3.3
